Source: PubChem
MbtI inh = MbtI salicylate synthase inhibition. P9WFX0. purified MbtI enzyme, fluorescence intensity read-out. inhibition, %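 (about 17 µg/mL by stock and volumes)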. 100,000 tested, 0.89% active. AID 493033;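 active = above 50% in both replicates, above 80% if mildly self-fluorescent; inactive = the rest, strongly fluorescent compounds included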;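 also: 0% = mean of negative and 100% = mean of positive controls; one replicate is shown; some compounds called inactive have numbers as strong as hits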
Target sequence (P9WFX0 whole entry, looked up): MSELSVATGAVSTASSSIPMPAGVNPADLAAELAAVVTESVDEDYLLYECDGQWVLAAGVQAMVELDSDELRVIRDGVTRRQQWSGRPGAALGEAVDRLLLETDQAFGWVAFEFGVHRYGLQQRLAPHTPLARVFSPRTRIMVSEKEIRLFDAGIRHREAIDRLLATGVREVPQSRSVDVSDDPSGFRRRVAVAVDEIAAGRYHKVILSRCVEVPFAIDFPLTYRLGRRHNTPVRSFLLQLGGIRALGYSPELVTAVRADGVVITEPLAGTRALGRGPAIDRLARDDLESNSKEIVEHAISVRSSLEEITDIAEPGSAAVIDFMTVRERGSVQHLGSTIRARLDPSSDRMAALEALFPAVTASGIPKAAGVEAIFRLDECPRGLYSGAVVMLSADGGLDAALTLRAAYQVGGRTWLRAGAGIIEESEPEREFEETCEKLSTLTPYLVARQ
Mtb MenB inh = inhibitors of Mycobacterium tuberculosis MenB enzyme; P9WNP5; MenB enzyme assay, absorbance read-out; some hits fall short of the stated cut; inhibition, %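 (about 12 µg/mL by stock and volumes)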; 100,000 tested, 0.43% active; AID 540299;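 active = mean of two replicates above 30%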;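 also: 0% = no compound and 100% = wells with inactive enzyme; the first replicate is given; strong numbers were not always called active; inactives centre near -10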
Target sequence (P9WNP5 whole entry, looked up): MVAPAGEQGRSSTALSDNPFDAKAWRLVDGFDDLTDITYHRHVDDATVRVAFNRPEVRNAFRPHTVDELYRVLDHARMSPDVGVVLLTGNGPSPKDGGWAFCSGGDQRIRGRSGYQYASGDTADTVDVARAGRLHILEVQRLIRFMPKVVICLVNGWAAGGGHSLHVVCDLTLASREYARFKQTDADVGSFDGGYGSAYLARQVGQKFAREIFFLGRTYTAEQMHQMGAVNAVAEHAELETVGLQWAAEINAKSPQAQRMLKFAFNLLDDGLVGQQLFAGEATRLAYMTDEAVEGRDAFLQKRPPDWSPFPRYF
PV pol inh = poliovirus RNA polymerase inhibition; P03300; poliovirus polymerase elongation, fluorescence polarization; hits give low values; % elongation, % (compound at 16.7 µg/mL); 150,000 tested, 0.66% active; AID 588519; in the data active = % elongation below about 90%; also: some results filed as inactive read as strong as hits
PV pol inh intensity = also measured in PV pol inh; calls as there; % elongation; measured here: total intensity read-out; formula for this scale not given here;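 total fluorescence in place of polarization; lower means less elongation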
* = called active by the depositor; i = inactive; nt = not tested or not shown; & = joins results of further samples.

SMILES	MbtI inh	Mtb MenB inh	PV pol inh	PV pol inh intensity
CC1CN(C)C(c2ccccc2)C(C)C12NC(=O)NC2=O (configuration not stated)	nt	-14	100	103
CC1CC(C)CN(C(=O)C2c3ccccc3Oc3ccccc32)C1 (configuration not stated)	-9	-8	102	103
CCN(CC(=O)Nc1cc(C)on1)CC(=O)NC1CCS(=O)(=O)C1 (configuration not stated)	17	-11	nt	nt
CCOc1ccc(/C=N/N2C(=O)NC(C)(CC)C2=O)c(O)c1 (configuration not stated)	-55	-22	103	104
O=C(O)c1ccc(N2CCCCS2(=O)=O)cc1	-1	-4	102	103
Cc1cc(C)nc(SCc2nnc(SCC(=O)NCc3ccccc3)o2)n1	-22	-46	103	106
CC(C)c1c(O)nc(SCCC(=O)O)[nH]c1=O	1	-7	101	97
O=C1Nc2ccccc2/C1=C/C=C/c1ccco1	28	-302	101	95
CCCCn1c(SCc2cc(=O)n3cc(Cl)ccc3n2)nc2ccc(N3CCOCC3)cc2c1=O	37	-16	100	103
O=P(OCC(F)(F)F)(N1CCCCC1)N1CCCCC1	8	6	102	105
COC(=O)c1c(O)cn(-c2ccc(C)c(C)c2)c1C	3	0	97	103
O=C1NC(C(F)(F)F)(C(F)(F)F)N=C2SC=CN12	-5	5	99	101
Cc1nn(Cc2ccccc2)c(Cl)c1C(=O)OCC#N	-6	2	101	114
O=C(Nc1ccc(Nc2ccccc2)cc1)c1cc(=O)c2ccccc2o1	-3	nt	102	101
O=C(c1ccc(Cl)cc1Cl)n1cc2c(n1)CCOC2	-11	-4	108	116
N#CC1=C(N)Oc2n[nH]c(-c3ccccc3)c2C1c1ccoc1 (configuration not stated)	-4	-2&-10	114&101	115&104
O=C(NCc1ccc2c(c1)OCO2)c1cc2ccccc2o1	nt	-14	106	108
CCn1c(SCC(=O)NC(=O)c2cccn2C)nnc1-c1cccs1	-69	-1	103	96
O=C(NCc1ccccc1)c1ccc[n+]([O-])c1	16	-6	99	102
CNC(=S)NCCc1ccccc1	-14	-8	104	109

5 structures out of the list, sorted by count of non-hydrogen atoms, lowest first:
SMILES	MbtI inh	Mtb MenB inh	PV pol inh	PV pol inh intensity
CNC(=S)NCCc1ccccc1	-14	-8	104	109
O=C(c1ccc(Cl)cc1Cl)n1cc2c(n1)CCOC2	-11	-4	108	116
O=C(NCc1ccc2c(c1)OCO2)c1cc2ccccc2o1	nt	-14	106	108
CCn1c(SCC(=O)NC(=O)c2cccn2C)nnc1-c1cccs1	-69	-1	103	96
O=C(Nc1ccc(Nc2ccccc2)cc1)c1cc(=O)c2ccccc2o1	-3	nt	102	101

Later entries
SMILES	MbtI inh	Mtb MenB inh	PV pol inh	PV pol inh intensity
CC(C)(C)c1ccc(NC(=O)c2ccc(N3C(=O)CSCC3=O)cc2)cc1	1	-18	109	111
Cc1cc(C(=O)N2CCN(C(c3ccccc3)c3ccccc3)CC2)no1	-18	-26	100	107
CN1C(=O)C(CC(=O)Nc2ccc(F)cc2)N(Cc2ccccc2)C1=S (configuration not stated)	0	-7	103	106
COC(=O)c1c(NC(=O)c2ccc(S(=O)(=O)N3CCCCC3C)cc2)sc2c1CCN(C)C2 (configuration not stated)	19	-8	100	93
O=C(Nc1c(C(=O)N2CCCCCC2)oc2ccccc12)c1ccccc1	12	-35	101	101
COc1ccc(NC(=O)/C(C#N)=N/Nc2cc(C(=O)O)ccc2C)cc1	20	-14	103	104
COc1cccc(-c2cc(C(F)(F)F)n3ncc(C(=O)NN4CCN(C)CC4)c3n2)c1	-2	-58	102	98
CC(NC(=O)c1ccco1)c1ccccc1 (configuration not stated)	-11	-16	103	102
CC(C(=O)O)n1nc2ccccc2n1 (configuration not stated)	0	1	102	104
CN(C(=O)/C=C/C(=O)O)c1ccccc1	-17	21	94	85
CN(C)S(=O)(=O)c1ccc(C(=O)COC(=O)c2ccccc2NCc2ccco2)cc1	-15	-7	103	108
CCN(C(C)=O)c1nnc(CSc2nc3ccccc3s2)s1	nt	-21	109	100
COc1ccc(C(N)C2CC2)cc1 (configuration not stated)	10	-18	106	104
O=C(O)c1cc(-c2ccccc2)nc2ccccc12	nt	1	102	100
CN(C)S(=O)(=O)c1ccc(=O)[nH]c1	-4	-9	107	105
O=C(NCCCN1CCCCC1)c1ccc2c(c1)NC(=O)c1ccccc1S2	34	-5	104	102
CN1CCN(C(=O)c2nc(SCc3ccc(F)cc3)ncc2Cl)CC1	2	14	103	99
CC(=O)N/N=C(\C)c1ccc2ccccc2c1OC(F)F	-3	-25	100	104
O=C(CC(NCCc1cc2ccccc2[nH]1)C(=O)O)c1ccc(Br)cc1 (configuration not stated)	nt	-6	100	110
CC(C)(C)c1ccc(-c2cc(C3CCNCC3)[nH]n2)cc1	-11	6	102	102
CCn1c(O)c(C=N/C(=N/O)c2ccc(NC(=O)C3CC3)cc2)c(=O)n(CC)c1=S	6	-25	104	110
CN1C(=O)C(=C2C=C(c3ccccc3)OC3=C2CCCC3)C(=O)N(C)C1=O	5	-11	102	107
COc1ccc(C2NCCc3c2[nH]c2ccc(OC)cc32)cc1 (configuration not stated)	11	9	102	103
Fc1cccc(F)c1CN1CC=CCC1	4	-11	104	100
CN1C(=O)NC(=O)/C(=C/c2ccco2)C1=O	-22	-95	99	105
Cc1ccc(CN(Cc2ccco2)C(=O)c2ccccc2)cc1	-4	-12	103	100
C(=N\c1nc2ccccc2n1Cc1ccccc1)/c1ccc2c(c1)OCO2	-3	-20	102	102
CCC(C)(C(=O)NC1CCCCC1)N(Cc1cccs1)C(=O)Cc1cccs1 (configuration not stated)	2	2	102	105
CC(=O)NCCC(=O)N1CCCSC1=Nc1c(C)cccc1C	-4	-3	88*	95*
COc1ccccc1-n1cnnc1SCC(=O)NC1CCCCC1C (configuration not stated)	-15	1	103	100
Cc1cc(C)c2c(=O)[nH]n(C3CCCC3)c2n1	nt	2	105	105
C(=N\N1CCN(Cc2cccc3ccccc23)CC1)/c1ccco1	nt	-33	105	111
O=C(Cn1ncc2c1-c1ccccc1OC2)NCCN1CCOCC1	-5	-2	100	102
NS(=O)(=O)c1cccc(C(=O)O)c1	-11	-30	103	101
CCNC(=O)/C(C#N)=C/c1ccc(OC(F)F)cc1	17	-22	104	106
CCN(CC)c1ccc(Nc2ncnc3ccccc23)cc1	12	-27	100	102
Cc1noc(C)c1CCC(=O)NC1=NCCS1	-9	-6	102	107
Cc1nc2c(C)nn(-c3ccccc3)c2s1	32	12	101	103
O=C(NCCc1c[nH]c2ccccc12)c1ccc(COc2ccc(F)cc2)o1	17	-28	nt	nt
COC(OC)C1Nc2ccccc2C(=O)N1c1cccc(C(F)(F)F)c1 (configuration not stated)	nt	-16	103	107
N#CC(C(=O)CN1C(=O)S/C(=C\c2cccs2)C1=O)c1ccccn1 (configuration not stated)	0	2	99	105
COc1ccccc1C(C1=C(OC(C)=O)COC1=O)c1cc2c(cc1OC(C)=O)OCO2 (configuration not stated)	nt	-24	107	109
Cc1c(Cl)cccc1NC(=O)n1ncc2c(C)cccc21	-6	2	104	103
O=S(=O)(c1ccccc1F)N1CCC(c2nc3ccccc3s2)CC1	-17	-23	105	103
O=C(CS(=O)(=O)c1ccccc1)N(Cc1ccccn1)c1nc2ccccc2s1	23	-5	99	104
CCc1ccc(N2CC(C(=O)O)CC2=O)cc1 (configuration not stated)	-12	-11	106	102
Cc1ccc(OCC(=O)OCc2c(C)noc2C)cc1C	3	-36	105	99
Cc1cc(/N=C\N(C)C)n2c(nc3ccccc32)c1C#N	-10	-2	131	191
COc1ccc(Oc2ncnc3c2cnn3-c2ccccc2)cc1	20	-13	102	101
N#Cc1c(/N=C/c2cccnc2)sc2c1CCC2	8	-93	99	104
Further entries.
SMILES	MbtI inh	Mtb MenB inh	PV pol inh	PV pol inh intensity
Cc1cc(N2C(=O)C3C4c5ccccc5C(c5ccccc54)C3C2=O)no1 (configuration not stated)	-7	-29	102	103
CCCC1Nc2ccc(C(=O)O)cc2C2C=CCC12 (configuration not stated)	-140	-13	86	119
CC(Oc1ccccc1C(=O)c1cc(C#N)c(=O)n(C2CCCCC2)c1)C(=O)N1CCOCC1 (configuration not stated)	-9	-13	103	95
O=C(NCNC(=O)c1ccccc1)c1ccccc1	-12	2	100	104
COc1ccccc1N=c1scc(-c2ccc(S(=O)(=O)N3CCOCC3)cc2)n1C	-3	4	101	102
CCN(CC)CCOc1ccc2c(c1)C(=O)c1cc(OCCN(CC)CC)ccc1-2	-17	-10	98	93
CC(=O)/C=C(\C)Nc1ccccc1S	1	28*	101	106
Cc1nnc(SCC#N)n1C	6	-55	102	103
CCNc1nnc(-c2ccccc2)s1	90	-28	103	102
S=c1nc(Cc2cccs2)[nH]c2ccccc12	24	-81	102	112

Not a retest: an excerpt of the list.
SMILES	MbtI inh	Mtb MenB inh	PV pol inh	PV pol inh intensity
CC(=O)/C=C(\C)Nc1ccccc1S	1	28*	101	106
Cc1nnc(SCC#N)n1C	6	-55	102	103
CCNc1nnc(-c2ccccc2)s1	90	-28	103	102
S=c1nc(Cc2cccs2)[nH]c2ccccc12	24	-81	102	112

Next results
SMILES	MbtI inh	Mtb MenB inh	PV pol inh	PV pol inh intensity
O=C1OC(N2CCN(Cc3ccc4c(c3)OCO4)CC2)c2ccccc21 (configuration not stated)	4	9	99	104
O=C(/C=C/c1ccc2c(c1)OCO2)NC(=S)NC1CCCC1	nt	-40	100	110
CC1(C)CC2CC(C)(CN2C(=O)CN2CCN(C/C=C/c3ccccc3)CC2)C1 (configuration not stated)	-3	-11	nt	nt
O=C(Cn1ncn2c(cc3ccccc32)c1=O)N1CCCCC1	25	1	103	103
CCN1CCc2nc(N/C=C/C(=O)C(F)(F)F)sc2C1	86	-63	98	112
COc1ccc(Cc2nc3ccccc3[nH]2)cc1OC	-13	nt	105	103
O=C(O)c1oc(C(=O)O)c(OCc2ccccc2)c1OCc1ccccc1	-17	-1	106	107
Cc1ccc(=O)n(Cc2ccccc2)n1	-10	-10	104	109
CC1CN(C(=O)CSc2nc(N)cc(=O)[nH]2)CC(C)O1 (configuration not stated)	1	-7	106	113
O=C1C2C3c4ccccc4C(c4ccccc43)C2C(=O)N1c1ccncc1 (configuration not stated)	5	-12	103	101
COc1ccc(NC(=O)c2ccc3c(c2)NC(=O)CO3)cc1OC	8	-18	102	101
O=C(COC(=O)C1CCN(S(=O)(=O)c2cccs2)CC1)NCc1ccccc1	3	13	99	109
O=S(=O)(NCc1ccc2c(c1)OCO2)c1ccc2c(c1)OCCO2	-2	-13	100	102
CNCc1cnn(Cc2ccccc2)c1	4	-16	103	110
O=C(CCc1nnc(-c2ccccc2)o1)OCc1c(F)cccc1Cl	-9	-1	101	99
COc1ccc(C2=NC3(CCNCC3)NC2=S)cc1	17	-2	104	107
COC(=O)c1cnn2c(C)c(Cc3ccc(C)cc3)c(C)nc12	i	-3	102	101
COc1ccccc1-c1c(C)nn2c(N3CCCC3)cc(C)nc12	1	-13	101	102
CCc1ccc(-c2nc(CN3CCC(C(=O)NCCc4ccccc4)CC3)c(C)o2)cc1	1	-18	102	101
CCOC(=O)c1cccc(NC(=O)N2CCC(CN3CCCCC3)CC2)c1	-3	6	102	104
CC(C)CCNC(=O)C1CCCN(S(=O)(=O)c2cccc3nsnc23)C1 (configuration not stated)	-6	-8	100	103
Cc1cc(N)cc(C(=O)O)c1O	10	37*	99	104
CN(CC(O)COc1ccc2oc3ccccc3c2c1)C1CCCCC1 (configuration not stated)	-3	nt	102	97
O=C1NC(=O)N2CCCC12 (configuration not stated)	-6	8	108	108
CCOC(=O)C(O)(c1cn(C)c2ccccc12)C(F)(F)F (configuration not stated)	1	16	97	101
NNC(=O)/C(=C/c1ccccc1)NC(=O)c1ccccc1	4	-45	97	100
OCCNc1nc2ccccc2n1CCOc1ccccc1	1	-9	104	103
C/C=C(\C)CN1CCN(c2ccccc2)CC1	0	-14	102	101
Cc1cccc(C)c1NC(=O)C1(N(Cc2ccccc2)C(=O)c2ccc(-n3cnnn3)cc2)CCCC1	nt	-5	99	103
COCCNC(=O)CN1CCc2ccccc2C1	-4	-21	103	106
O=C(OCC(=O)N1CCc2ccccc2C1)c1ccccc1	3	-23	84*	91*
CN(C(=O)Cc1noc2ccccc12)c1cccc(C(F)(F)F)c1	-7	-15	103	102
N#Cc1ccc(OCC(=O)N2CCSc3ccccc32)cc1	-10	-21	106	109
NCCCc1ccccn1	-4	18	102	111
Cc1ccc(S(=O)(=O)/N=C2\C=CC(=O)c3ccccc32)c(C)c1	10	-32	98	99
Cc1cc(Cl)ccc1OCC(=O)N/N=C/c1ccc(OC2OC(CO)C(O)C(O)C2O)cc1 (configuration not stated)	12	-27	103	99
CCc1ccccc1N(C)S(=O)(=O)c1ccc(-c2cc(C)no2)s1	-18	-18	101	102

Reprinted at random: 7 entries already listed
SMILES	MbtI inh	Mtb MenB inh	PV pol inh	PV pol inh intensity
CCN1CCc2nc(N/C=C/C(=O)C(F)(F)F)sc2C1	86	-63	98	112
CC(=O)/C=C(\C)Nc1ccccc1S	1	28*	101	106
O=C(Nc1ccc(Nc2ccccc2)cc1)c1cc(=O)c2ccccc2o1	-3	nt	102	101
COc1cccc(-c2cc(C(F)(F)F)n3ncc(C(=O)NN4CCN(C)CC4)c3n2)c1	-2	-58	102	98
Cc1nc2c(C)nn(-c3ccccc3)c2s1	32	12	101	103
CCc1ccc(N2CC(C(=O)O)CC2=O)cc1 (configuration not stated)	-12	-11	106	102
Cc1cc(/N=C\N(C)C)n2c(nc3ccccc32)c1C#N	-10	-2	131	191
